High-throughput results as filed in PubChem BioAssay.
Six1-Eya2 blk = inhibitors of human Six1/Eya2 interaction; Q15475+O00167; AlphaScreen GST-Six1/His-Eya2 binding, biochemical; hits give low values; control for the full effect not named in the record; activity change, % (no concentration beside the values); 0.56% of 360,000 active; in the data active = activity change below about -65%; inconclusive = about -30% to -65%; inactive = above about -30%; also: % is scaled to controls: 0 for no effect and ±100 for the full control effect; compound concentration not given in the record
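Compounds are tested against tagged Six1 and Eya2 proteins bridged by glutathione donor and nickel acceptor beads; after a one-hour incubation at 37 °C without light, AlphaScreen emission is recorded.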
D2 ag = human D2 receptor agonism in beta-arrestin assay; P14416; DiscoveRx PathHunter D2 beta-arrestin, luminescence, 90 min; 100% = 57 uM dopamine signal; activation, % (concentration not given with the values); 0.084% of 360,000 active; in the data active = activation above about 40%; inconclusive = about 15% to 40%; inactive = below about 15%; also: compound concentration not given in the record; the text of the record calls up to 30% inactive
Target sequence (P14416 whole entry, looked up): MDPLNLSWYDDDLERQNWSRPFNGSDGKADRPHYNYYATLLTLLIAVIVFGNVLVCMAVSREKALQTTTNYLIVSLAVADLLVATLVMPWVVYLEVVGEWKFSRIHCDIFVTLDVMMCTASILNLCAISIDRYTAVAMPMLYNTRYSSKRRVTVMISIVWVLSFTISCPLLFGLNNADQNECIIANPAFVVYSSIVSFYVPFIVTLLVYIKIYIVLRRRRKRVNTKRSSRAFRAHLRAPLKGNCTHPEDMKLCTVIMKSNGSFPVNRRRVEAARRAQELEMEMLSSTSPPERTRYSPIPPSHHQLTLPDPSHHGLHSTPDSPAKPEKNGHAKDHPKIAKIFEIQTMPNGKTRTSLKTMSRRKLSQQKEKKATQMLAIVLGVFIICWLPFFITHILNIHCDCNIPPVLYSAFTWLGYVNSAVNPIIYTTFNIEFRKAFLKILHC
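Agonist mode: compounds alone added to overnight-plated D2 PathHunter cells for 90 min at 37 C, with 57 uM final dopamine (EC100) defining full response. Beta-arrestin recruitment detected by chemiluminescent reagent, read after 1 h at ambient temperature.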
PINK1 expr mod = PINK1 expression modulation; PINK1 immunofluorescence, high-content cytometry, 24 h; Potency, µM (series often up to 76.6 µM), for the others: at the top dose activation (PINK1 increase), most hits filed as activators; 0.2% of 410,000 active; AID 624263; active = well fitted activation curve with a large enough effect; inconclusive = small, poorly fitted or top-dose-only effect; inactive = flat fitted curve, though single readings scatter; cell line not stated here;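 also: potency is read from the fitted curve at half-maximal effect; % of control where 0% means no effect; nearly all actives have a fitted effect of over 65% in size; a mitochondrial uncoupler was the plate control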
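Fluorescence from anti-PINK1 antibody, together with nuclear and cell stains, was scanned on a laser-scanning cytometer. Before staining, stable-line cells were incubated 24 hours with compounds at 5 concentrations; primary antibody 12 h at 10 degrees C.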
CtBP-E1A blk = inhibitors of CtBP/E1A interaction. AID 651724. activity change, % (concentration not given with the values). 0.49% of 340,000 active. AlphaScreen GST-E1A/His-CtBP binding, 1536-well; hits give low values; control for the full effect not named in the record; in the data active means activity change below about -65%; inconclusive means about -30% to -65%; inactive means above about -30%; also: % is scaled to controls: 0 for no effect and ±100 for the full control effect
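In 5 uL wells, 23 nL compound meets equimolar GST-E1A and His-CtBP (5X stock 125 nM each) for 2 h, 37 °C. Beads (5X, 50 ug/mL) then 1 h, 37 °C, dark.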
TRPML1 inh = inhibitors of human TRPML1 channel; Q9GZU1; TRPML1-inducible cells, Ca2+ dye fluorescence, FDSS; hits give low values; inhibition of EC80 agonist-evoked calcium signal; activity change, negative = inhibition, % (concentration not given with the values); 0.02% of 390,000 active; AID 624415; in the data active means activity change below about -50%; inconclusive means about -30% to -50%; inactive means above about -30%;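 also: stimulus is agonist 54-4 at its EC80 concentration; % is scaled to controls: 0 for no effect and ±100 for the full control effect; compound concentration not given in the record; the text of the record puts the active cut at -80%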
Target sequence (Q9GZU1 whole entry, looked up): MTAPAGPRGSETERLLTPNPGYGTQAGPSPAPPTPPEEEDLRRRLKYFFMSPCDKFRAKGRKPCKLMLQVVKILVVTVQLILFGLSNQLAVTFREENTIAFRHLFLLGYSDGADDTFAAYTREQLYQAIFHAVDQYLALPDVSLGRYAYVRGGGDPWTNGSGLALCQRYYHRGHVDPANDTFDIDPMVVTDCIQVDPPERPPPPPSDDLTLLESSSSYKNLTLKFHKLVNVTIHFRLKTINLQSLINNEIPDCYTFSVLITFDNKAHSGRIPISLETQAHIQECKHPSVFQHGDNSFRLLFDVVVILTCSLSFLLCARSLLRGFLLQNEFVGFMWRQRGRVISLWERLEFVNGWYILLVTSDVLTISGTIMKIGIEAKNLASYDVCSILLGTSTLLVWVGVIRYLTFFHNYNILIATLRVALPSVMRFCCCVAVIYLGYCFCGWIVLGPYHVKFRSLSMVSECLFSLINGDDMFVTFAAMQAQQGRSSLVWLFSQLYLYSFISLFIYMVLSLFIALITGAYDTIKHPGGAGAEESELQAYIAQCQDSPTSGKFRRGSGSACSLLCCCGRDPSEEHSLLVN
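Calcium fluorescence in TRPML1-DL cells induced overnight with Tet: a 110 s read after compound pin addition, then a 110 s antagonist read after challenge with 54-4 at 4 uM final (EC80).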
TRPML1 agonist = human mucolipin-1 channel agonism. Q9GZU1. AID 624414. TRPML1-expressing cells, Ca2+ dye fluorescence, FDSS; host cell line not named in the record; reference of the full effect not given here. activation, % (test concentration not listed). 0.12% of 410,000 active; in the data active = activation above about 50%; inconclusive = about 30% to 50%; inactive = below about 30%; also: 0% is about no effect; the text of the record puts the active cut at 80%
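In this qHTS format, compounds were pin-transferred onto Ca8-dye-loaded TRPML1-DL cells induced with Tet overnight, and intracellular Ca2+ fluorescence was recorded kinetically for 110 s after a 10 s baseline. A subsequent 4uM final 54-4 (EC80) addition followed by a second 110 s read served as the antagonist phase.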
Active calls of the source: *; ? = inconclusive; . = no result given; [ ] = remark or other dose.

compound	Six1-Eya2 blk	D2 ag	PINK1 expr mod	CtBP-E1A blk	TRPML1 inh	TRPML1 agonist
CCN(CC(=O)Nc1ccc(S(N)(=O)=O)cc1)S(=O)(=O)c1cc(C)ccc1OC	0	4.8	0.6%	9	-3	0.7
COc1c(F)c(F)c(C(=O)Nc2ccc(NC(=O)c3ccco3)cc2)c(F)c1F	0	-1.2	11%	-5	6	-1.1
O=C(CN1CCN(S(=O)(=O)c2ccccc2F)CC1)N1CCc2ccccc2C1	-3	-2.7	-0.4%	3	-8	-0.5
CC(C)(C)c1nnc2sc(SCC(=O)c3ccc4c(c3)OCCO4)nn2c1=O	-5	-5.1	3.3%	-22	-4	1.4
CC1=C(C(=O)N2CCCCCC2)CC(CC(=O)NC(c2ccccc2)c2ccccc2)C(=O)N1Cc1ccccc1 (centres undefined)	2	3.9	-0.2%	4	-20	1.7
Cc1ccc(NC2=C(Cl)C(=O)OC2OC(=O)c2ccco2)cc1 (centres undefined)	-1	-0.5	0.2%[38.3 µM]	6	8	0.2
COC(=O)c1ccc(COc2ccc(C3C4=C(CCCC4=O)Nc4onc(C)c43)cc2)cc1 (centres undefined)	-20	-1.8	-1.9%	-14	-3	2.1
O=C(NC1CCCCC1)c1ccc2c(c1)N(Cc1ccccc1F)C(=O)c1ccccc1S2	.	.	-1.3%	.	51	2.0

Some of these compounds in order of heavy-atom count, smallest number first:
compound	Six1-Eya2 blk	D2 ag	PINK1 expr mod	CtBP-E1A blk	TRPML1 inh	TRPML1 agonist
Cc1ccc(NC2=C(Cl)C(=O)OC2OC(=O)c2ccco2)cc1 (centres undefined)	-1	-0.5	0.2%[38.3 µM]	6	8	0.2
CC(C)(C)c1nnc2sc(SCC(=O)c3ccc4c(c3)OCCO4)nn2c1=O	-5	-5.1	3.3%	-22	-4	1.4
CCN(CC(=O)Nc1ccc(S(N)(=O)=O)cc1)S(=O)(=O)c1cc(C)ccc1OC	0	4.8	0.6%	9	-3	0.7
O=C(NC1CCCCC1)c1ccc2c(c1)N(Cc1ccccc1F)C(=O)c1ccccc1S2	.	.	-1.3%	.	51	2.0

(next part)
compound	Six1-Eya2 blk	D2 ag	PINK1 expr mod	CtBP-E1A blk	TRPML1 inh	TRPML1 agonist
Cc1cc(NCc2ccccc2)nc(-c2ccccc2O)n1	20	2.5	3.5%	21	-5	-0.6
COc1ccc(S(=O)(=O)Nc2cccc3c2O[C@@H](CN(C)Cc2ccc(C(=O)O)cc2)[C@@H](C)CN([C@H](C)CO)C3=O)cc1	10	3.5	-0.4%	8	3	-0.3
O=C1CCC(C(=O)OCC(=O)Nc2cc(Cl)ccc2F)=NN1	-6	-3.9	0.8%	-1	25	0.5
Cc1nc2ccccn2c1C(=O)N=Nc1c(O)[nH]c2ccccc12	-7	-3.1	0.2%	1	30	-0.4
CCOc1ccc(NS(=O)(=O)c2ccc(-c3cnc(C4CC4)o3)cc2)cc1	1	11	4.5%	.	-7	1.0
O=C(NCCOc1ccc(F)cc1)C1CCC(=O)N(CCc2ccccn2)C1 (centres undefined)	4	-5.9	1.5%	19	41	-0.4
CCCS(=O)(=O)N1CCCC(C(=O)N2CCN(c3ccccc3)CC2)C1 (centres undefined)	-1	2.1	0.8%	7	23	0.0
N#Cc1ccsc1NC(=O)c1ccc(Cl)c([N+](=O)[O-])c1	-4	-14	32µM*	.	16	0.2
O=C(NCc1ccc(F)cc1)c1cc(-c2ccc(Cl)cc2)n[nH]1	.	.	-1.3%	.	-5	1.9
CC[C@]1(C(=O)OC)[C@H]2C(=O)N(Cc3ccccc3)C(=O)[C@H]2[C@H]2CN=C(SCC(=O)c3ccccc3)N21	14	-3.4	1.4%	0	-7	0.7
Cc1ccc2nc(NC(=O)COC(=O)c3ccco3)sc2c1	-15	-3.1	.	-16	-7	-0.4
N#Cc1c(N2CCCCC2)nc(N)c2c(N)nc(SCC(=O)O)cc12	-27	-18	1.5%	?	8	0.7
Cc1ccc(-c2cc(-c3ccccc3O)nc(N/N=C/c3cccnc3)n2)cc1	-3	-0.2	?	4	29	0.0
CCOc1ccc(C(=O)CCC(=O)NC2=NCCS2)cc1	-10	-1.3	-2.6%	1	11	-0.2
Cc1nnc(C)n1/N=C/c1cccn1C	8	-1.5	-2.2%	-2	31	-0.2
CCn1cc(CCC(=O)NCc2cccc(OC)c2OC)c2ccccc21	-3	-0.7	3.7%	-3	31	0.9
Cc1ccc2nc(COc3ccccc3NC(=O)COc3ccccc3Cl)cc(=O)n2c1	.	.	0.3%	.	-6	1.0
CCCCCOC(=O)C1[C@H]2C(=O)N(c3ccccc3CC)C[C@]23C=C[C@H]1O3 (some centres undefined)	6	-1.2	2.7%	-2	9	-0.1
O=C(/C=C/c1ccccc1)Nc1cccc(C(=O)NCCCc2ccccc2)c1	0	2.1	-0.1%	1	-5	2.0
Cc1cccc(C(=O)Nc2ccccc2C(=O)OCc2cc(=O)n3nc(C4CC4)sc3n2)c1	.	.	0.9%	.	-8	-0.8
CCN(Cc1ccccc1)S(=O)(=O)c1cc(C(=O)NC2CCCCCC2)ccc1OC	0	-3.2	1.1%	3	22	3.4
COc1ccccc1N1CCN(C2CCC(C)CC2)CC1 (centres undefined)	0	-4.4	0.5%	-1	-6	0.1
Cc1cc(C)n(Cc2ccc(C(=O)N/N=C/c3ccc(-c4ccc([N+](=O)[O-])cc4)o3)o2)n1	0	8.6	4.1%	0	-8	2.3
Cc1[nH]c2c(Cl)cccc2c1CCNC(=O)C1CCCCC1C(=O)OCC(F)(F)F (centres undefined)	0	0.2	1.6%	-18	10	1.1

The results go on.
Structure	Six1-Eya2 blk	D2 ag	PINK1 expr mod	CtBP-E1A blk	TRPML1 inh	TRPML1 agonist
CCC(CC)C(=O)Nc1cccc(/C(C)=N\NC(=O)c2ccc(C)s2)c1	4	-4.3	3.8%	2	17	-0.9
N#CCSc1nc2ccccc2c(=O)n1CCCC(=O)NCc1ccco1	-12	-2.4	-0.2%	-14	21	0.6
Cc1ccc(S(=O)(=O)Nc2ccc(OCC(=O)N3CCOCC3)cc2)c(C)c1NS(C)(=O)=O	8	-0.5	-0.8%	7	8	-0.6
CCOC(=O)c1ccc(S(=O)(=O)N2CCC(C(=O)Nc3nnc(C)o3)CC2)cc1	?	-3.6	1.4%	-7	-5	0.3
N#CC1=C(N)OC2=C(C(=O)CCC2)C1c1ccccc1 (centres undefined)	7	-1.3	1.9%[38.3 µM]	-1	-1	0.1
CN1CCC(N(C)C(=O)c2cc(-c3ccc(F)cc3)nc3ccccc23)CC1	-8	-2.4	0.6%	2	5	1.9
C[C@@H]1CN(S(=O)C(C)(C)C)[C@H](CCO)/C1=C\c1ccccc1 (some centres undefined)	4	-1.4	0.6%	7	-4	2.0
O=C(CCn1nc(-c2ccc(Cl)cc2)c2ccccc2c1=O)NN1CCOCC1	0	-3.9	-1.2%	-2	-8	0.3
CCc1noc(C)c1C(=O)OCC(=O)N(C)c1c(N)n(Cc2ccccc2)c(=O)[nH]c1=O	5	0.2	0.0%	3	-13	-0.4
COc1ccc(C2CC(=O)Oc3ccc(C(C)(C)C)cc32)cc1 (centres undefined)	12	0.1	-0.4%	13	35	2.6
CCCC1Oc2ccccc2C(=O)N(CC(=O)c2ccc3c(c2)OCCO3)C1=O (centres undefined)	3	-4.3	1.0%	6	30	-0.8
Cc1[nH]c2ccccc2c1C(=O)C(=O)N(C)C1CCCCC1	-20	-2.0	3.5%	-27	-8	1.1
CCOc1cc(/C=C2\SC(N)=NC2=O)ccc1O	4	2.0	3.5%	-12	-3	2.6
CCOC(=O)C(CCCOc1ccc(C(C)CC)cc1)C(=O)OCC (centres undefined)	80	1.3	0.4%	61	-6	2.0
CSc1ccc(/C=C/C(=O)OCC(=O)NC2CCCC2)cc1	-10	0.5	3.2%	-1	30	-0.6
O=C(NCC(=O)N(c1ccccc1)C(C(=O)NC1CCCC1)c1cccnc1)c1cccs1 (centres undefined)	-1	0.0	.	-6	0	0.0
CCn1c(SCC(=O)Nc2cc(S(=O)(=O)N3CCOCC3)ccc2OC)nnc1-c1ccncc1	1	-2.0	-1.0%	.	-2	3.2
COc1ccc(NC(=O)C(OC(=O)c2cnc(C)cn2)c2ccccc2)cc1Cl (centres undefined)	3	5.4	-3.9%	7	4	0.2
O=C(COC(=O)/C=C/c1ccccc1Cl)NC1CCCC1	7	-4.8	-0.9%	2	2	-0.5
COc1cc2ccccc2cc1C(=O)N1CC(C)OC(C)C1 (centres undefined)	0	-7.4	-0.6%	4	-6	-1.0
CC(=O)Nc1ccc(NS(=O)(=O)c2ccc(OC(C)C(=O)N3CCOCC3)cc2)cc1 (centres undefined)	-2	-3.1	0.6%	-1	7	0.8
COc1ccc(CCNC(=O)CNS(=O)(=O)c2ccc(Br)s2)cc1OC	6	-0.3	.	10	30	0.7
O=C(Nc1cccnc1)c1cc2cc(Br)ccc2o1	0	0.3	1.2%	-9	31	0.8
CCCCNC(=O)C[C@@H]1C[C@@]2(C(=O)OCC)CCC=C2N(CCC2=CCCCC2)C1=O	10	.	0.0%	-25	.	-0.6
Nc1[nH]c(C(=O)c2ccccc2)c(-c2cccc3ccccc23)c1C(=O)NCc1ccccc1	1	.	5.2%	-3	.	-0.8
Cc1ccc2occ(/C=N/NC(=O)[C@@H](N)Cc3ccccc3)c(=O)c2c1	-3	-5.2	4.2%	1	-17	-0.2
O=C(Cn1nnc(-c2ccccc2)n1)NCC(=O)Nc1ccc(F)c(F)c1F	1	-2.7	6.0%	.	-11	-0.8
CC(C)c1nnc(NC(=O)CCC(=O)NC2CCCCCC2)s1	-1	0.6	-0.7%	5	2	-0.8
COc1ccccc1CCc1nnc(CCC(=O)NCCCOc2cccnc2)o1	9	7.6	0.8%	.	4	-0.6
CN(C(=O)COC(=O)CNC(=O)c1ccccc1Cl)c1ccccc1	2	3.9	0.5%	13	2	-0.3
Fc1ccc(OCc2nc(-c3cccs3)no2)cc1	33	0.3	0.8%	36	-5	0.4
Cc1ccc(-n2nnnc2SC(C)C(=O)Nc2ccc(Cl)cn2)cc1 (centres undefined)	-17	1.1	-1.0%[38.3 µM]	0	3	1.9
O=[N+]([O-])c1ccc(Sc2ccccc2Cl)nc1	-25	-2.3	-0.4%[38.3 µM]	-21	-2	1.1
CC(C)NC(=O)CCS(=O)(=O)c1ccc(Br)s1	4	-1.6	2.3%[38.3 µM]	0	-2	0.5
O=C1OC(/C=C/c2ccccc2)=NC/1=C/C=C/c1ccccc1	2	-1.8	0.9%	1	-1	-0.1
CCSc1ccc2c(c1)N(CCCN1CCN(C)CC1)c1ccccc1S2	8	-5.7	-0.7%	-3	67	9.3
